YB-1 expr inh: YB-1 expression inhibition | 0.37% of 30,000 active | U2OS, qRT-PCR YB-1 vs CDIP delta delta Cp, 16 h; active compounds read high; zero = DMSO, each unit about twofold | delta delta Cp (YB-1 minus CDIP) (no concentration beside the values);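 active means delta delta Cp rounded down to an integer at or above 3, about 3 SD of DMSO wells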;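 further: higher means less YB-1 transcript or more CDIP transcript relative to DMSO; stock transfer was 100 nL into about 100 µL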
PD-1 reversal: activators reversing PD-1 mediated T-cell inhibition; 29,000 tested, under 10 active; primary human CD4 T cells, PD-L1 beads, CellTiter-Glo 96 h; activation, % (concentration not given with the values);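 active means replicate mean of 50% or more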;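 further: 0% = median vehicle wells and 100% = positive control; 100 nL library stock added to about 50 µL; numbers are from one replicate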
MITF inh: MITF inhibition; 0.28% of 37,000 active; TRPM1 promoter luciferase, luminescence, 24 h; inhibition, % (test concentration not listed);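 active means most replicates at 85% or more, or half of them and the mean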;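 further: human melanocyte line stably carrying TRPM1 promoter luciferase reporter; 0% = vehicle wells and 100% = a positive control; the first replicate is given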
Hedgehog inh: blocks Sonic Hedgehog signaling; Shh-LIGHT2 Gli-luciferase reporter, 30 h; inhibition, % (no concentration beside the values); 2.1% of 22,000 active; AID 2313;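 active means replicate mean of 65% or more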;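 further: pathway switched on by Shh-conditioned medium diluted 1 in 25 in low serum; 100 nL library stock added to about 40 µL; 0% = median of neutral wells and 100% = positive control level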
Active calls of the source: *; nt = not tested or not shown; & = joins results of further samples. The list is partial; count on the stated rates, not on these rows.

Values run as follows: Hedgehog inh	PD-1 reversal	MITF inh	YB-1 expr inh
> O=[N+]([O-])c1ccc(NCCNS(=O)(=O)c2ccc(Cl)cc2)cc1
→ nt	0.6	-12	nt
> Cc1ccc(S(=O)(=O)N(C)C[C@H]2Oc3c(NS(=O)(=O)c4cn(C)cn4)cccc3C(=O)N([C@H](C)CO)C[C@@H]2C)cc1
→ -20	0.1	-2	0.3
> COc1c(O)cc2oc3cc(O)c(CC=C(C)C)c(O)c3c(=O)c2c1CC=C(C)C
→ 11	-14	50	0.86
> C[C@@H]1CN([C@H](C)CO)C(=O)c2cc(NC(=O)Cc3ccccc3)ccc2O[C@H]1CN(C)CC1CCCCC1
→ nt	-0.1	-9	-0.1
> C[C@H]1CN([C@@H](C)CO)C(=O)Cc2cc(NS(=O)(=O)c3ccc(Cl)cc3)ccc2O[C@H]1CN(C)Cc1ccccc1
→ 45	0.4	26	0.63
> COc1ccc(S(=O)(=O)N(C)C[C@@H]2Oc3ccc(NC(=O)Nc4ccc(F)cc4)cc3C(=O)N([C@@H](C)CO)C[C@@H]2C)cc1
→ -76	nt	-13	-1.3
> O=C(O)CSc1nnc(C2COc3ccccc3O2)n1-c1ccccc1 (configuration not stated)
→ nt	1.7	-11	nt
> Cc1ccc(S(=O)(=O)Nc2ccc3c(c2)C(=O)N([C@H](C)CO)C[C@@H](C)[C@H](CN(C)CC2CCCCC2)O3)cc1
→ nt	2.3	-8	0.15
> CN(Cc1n[nH]c(=S)n1C)S(=O)(=O)c1ccccc1
→ nt	0.7	-11	nt
> COc1ccc(NC(=O)N(C)C[C@H]2Oc3ccc(NS(=O)(=O)c4ccccc4)cc3C(=O)N([C@H](C)CO)C[C@H]2C)cc1
→ nt	-1.4	0	0.073
> C[C@H](CO)N1C[C@H](C)[C@@H](CN(C)S(=O)(=O)c2cn(C)cn2)Oc2ccc(NC(=O)Nc3ccc(C(F)(F)F)cc3)cc2C1=O
→ nt	1.6	6	-0.19
> O=C(CSc1nc2ccccc2c(=O)n1-c1ccc(Cl)cc1)Nc1ccc(Cl)cc1Cl
→ nt	-8.3	6	nt
> COc1ccc(NC(=O)N(C)C[C@H]2Oc3ccc(N(C)C)cc3C(=O)N([C@@H](C)CO)C[C@@H]2C)cc1
→ nt	nt	-5	0.12
> CCC(=O)N1C(CC(=O)Nc2ccc(F)cc2)C(=O)NC2CCCCC21 (configuration not stated)
→ 20	2.6	-14	0.13
> C[C@H](CO)N1C[C@H](C)[C@@H](CN(C)Cc2ccc(C(F)(F)F)cc2)Oc2c(NC(=O)c3ccncc3)cccc2C1=O
→ 16	-0.8	-18	-0.22
> O=C1CC2(CCCC2)CC(=O)N1CCCCN1CCN(c2ncccn2)CC1
→ 41&-23	3.1	0&-17	0.42&0.86
> COc1ccc(OCc2nnc3n2N=C(c2ccc(OC)c(OC)c2)C(c2ccccc2)S3)cc1 (configuration not stated)
→ nt	-3.9	1	nt
> C[C@@H]1CCCCO[C@@H](CN(C)C(=O)CCC(F)(F)F)[C@@H](C)CN([C@H](C)CO)C(=O)c2cc(NC(=O)c3ccncc3)ccc2O1
→ -17	0.7	-15	0.15
> CCc1c(C)[nH]c2c1C(=O)C(CN1CCOCC1)CC2 (configuration not stated)
→ -55	nt	22	0.37
> CNC[C@H]1Oc2c(NC(=O)Nc3ccc(OC)cc3)cccc2C(=O)N([C@H](C)CO)C[C@H]1C
→ 0	2.7	3	-0.26
> C[C@@H]1CCCCO[C@H](CN(C)Cc2ccc(C(=O)O)cc2)[C@@H](C)CN([C@H](C)CO)C(=O)c2cc(NC(=O)NC3CCCCC3)ccc2O1
→ -19	1.3	-6	0.012
> CCOC(=O)c1c(NC(=O)c2ccc(-c3ccccc3[N+](=O)[O-])o2)sc2c1CCCC2
→ nt	0.1	-13	nt
> C[C@@H]1CCCCO[C@H](CN(C)Cc2ccc(Cl)c(Cl)c2)[C@@H](C)CN([C@H](C)CO)C(=O)c2cc(NC(=O)NC3CCCCC3)ccc2O1
→ 38	nt	8	-0.38
> C[C@@H]1CN([C@@H](C)CO)C(=O)c2cc(NS(=O)(=O)c3ccccc3)ccc2O[C@H]1CN(C)C
→ 6	2.0	-3	-0.17
> CN1CCN2c3ccccc3Cc3ccccc3C2C1 (configuration not stated)
→ 37&1	0.2&4.8	7&-5	0.2&0.36
> C[C@@H]1CN([C@@H](C)CO)C(=O)c2cc(NC(=O)CCC(F)(F)F)ccc2O[C@@H]1CN(C)CC1CCCCC1
→ 13	0.1	-9	0.56
> O=C(O)CCc1ccc(-c2ccc(Cl)cc2)n1-c1ccc(C(=O)O)cc1
→ nt	0.8	-15	nt
> CCc1ccc(-n2c(SCC(=O)Nc3ccc(F)cc3)nnc2-c2ccncc2)cc1
→ nt	-2.0	-5	nt
> C[C@H](O)CC1=C[C@H](O)[C@@H](C)OC1=O
→ -15	-0.4	4	-0.056
> COc1ccc(CCC(=O)CCc2ccc(OC)cc2)cc1
→ -33	-0.8	-12	-0.63
> CC(=O)O[C@H]1[C@H](Oc2ccccc2COC(=O)C2(O)C=CCCC2=O)O[C@H](CO)[C@@H](O)[C@@H]1O (some centres not stated)
→ -19	-2.1	-19	-0.46
> Cc1ccc(OCC(=O)Nc2cccc3c2C(=O)NC3=O)cc1C
→ nt	0.3	-41	nt
> Cc1ccc(S(=O)(=O)N(C)C[C@@H]2Oc3ccc(NC(=O)C4CCCCC4)cc3C(=O)N([C@H](C)CO)C[C@@H]2C)cc1
→ -5	-1.8	11	0.17
> CC1Cc2ccc3c(c2C(O)C1)C(=O)c1cccc(O)c1C3O (configuration not stated)
→ 7	0.3	6	-0.32
> COC(=O)C(C)N(C#N)c1nc(C)nc(C)n1 (configuration not stated)
→ nt	1.2	-3	nt
> CC(C)(Oc1ccc(CCNC(=O)c2ccc(Cl)cc2)cc1)C(=O)O
→ -16	7.3	1	0.054
> Cc1nc(C)n(CC(O)COc2ccc3c(c2)CCC3)n1 (configuration not stated)
→ nt	2.4	3	nt
> C[C@@H]1CN([C@@H](C)CO)C(=O)c2cc(NC(=O)Nc3ccc(C(F)(F)F)cc3)ccc2O[C@H]1CN(C)S(=O)(=O)c1ccccc1
→ 1	0.0	40	-0.47
> C[C@H](CO)N1C[C@H](C)[C@@H](CN(C)S(=O)(=O)c2ccc(F)cc2)Oc2ccc(NC(=O)Nc3ccc(C(F)(F)F)cc3)cc2C1=O
→ 19	-1.0	38	-0.045
> C[C@H](CO)N1C[C@H](C)[C@H](CN(C)C(=O)Nc2cccc3ccccc23)Oc2c(NC(=O)C3CC3)cccc2C1=O
→ nt	nt	8	-0.074
> C[C@H]1CN([C@@H](C)CO)C(=O)c2cccc(NC(=O)Nc3ccc(F)cc3)c2O[C@@H]1CN(C)S(=O)(=O)c1cn(C)cn1
→ -11	3.0	2	0.047
> C[C@@H]1CN([C@H](C)CO)C(=O)c2cc(NC(=O)Cn3cnnn3)ccc2O[C@H]1CN(C)Cc1ccc(-c2ccccc2)cc1
→ 1	-1.9	-2	-13
> COC(=O)/C=C/c1ccc(OC)c(/C=C/C(C)(C)O)c1
→ -16	0.2	-39	-0.13
> CN(C)Cc1c(C#N)c2ccccc2n1C
→ 3	0.7	-3	-0.039
> Cc1ccc(S(=O)(=O)N(C)C[C@H]2Oc3c(NS(C)(=O)=O)cccc3C(=O)N([C@H](C)CO)C[C@H]2C)cc1
→ 15	nt	-9	-0.0075
> COc1ccc(CN(C)C[C@H]2Oc3ccc(NC(=O)NC(C)C)cc3C(=O)N([C@@H](C)CO)C[C@@H]2C)cc1
→ 16	nt	8	0.18
> C[C@H]1CN([C@@H](C)CO)C(=O)Cc2cc(NC(=O)Cc3cn(C)c4ccccc34)ccc2O[C@@H]1CN(C)C(=O)NC1CCCCC1
→ 16	nt	13	0.18
> O=S1(=O)NC(=NCCOCc2ccc(Cl)cc2)c2ccccc21
→ nt	0.9	-3	nt
> Cc1noc(C)c1S(=O)(=O)N(C)C[C@@H]1Oc2ccc(NS(=O)(=O)c3cccs3)cc2CC(=O)N([C@H](C)CO)C[C@@H]1C
→ nt	nt	-1	-0.54
> COc1ccc(Cl)cc1NC(=S)NCc1ccco1
→ nt	-3.4	2	nt
> COc1ccc(NC(=O)Nc2ccc3c(c2)C(=O)N([C@@H](C)CO)C[C@@H](C)[C@@H](CN(C)S(=O)(=O)c2cccs2)O3)cc1
→ 21	1.3	-14	-0.19
> C[C@@H]1CN([C@H](C)CO)C(=O)c2cccc(NC(=O)C3CCCCC3)c2O[C@@H]1CN(C)C
→ -69	4.1	-8	-0.047
> Cc1ccc(S(=O)(=O)NC(C)(C)CSc2ccccn2)cc1
→ nt	2.0	8	nt
> NC(=O)c1ccc(NCc2cccnc2)c([N+](=O)[O-])c1
→ nt	-0.3	-19	nt
> C[C@H](CO)N1C[C@H](C)[C@H](CN(C)S(=O)(=O)c2ccccc2)Oc2c(NC(=O)C3CCCCC3)cccc2C1=O
→ 2	-2.7	2	-0.51
> C[C@@H]1CN([C@@H](C)CO)C(=O)Cc2cc(NC(=O)CCN3CCOCC3)ccc2O[C@@H]1CN(C)S(=O)(=O)c1cccs1
→ -44	0.6	4	-0.12
> C[C@@H]1CN([C@@H](C)CO)C(=O)c2cccc(NC(=O)Nc3cccc4ccccc34)c2O[C@H]1CN(C)C(=O)Nc1ccc(C(F)(F)F)cc1
→ 4	-5.5	20	0.022
> C[C@@H]1CN([C@H](C)CO)C(=O)Cc2cc(NC(=O)Nc3cccc4ccccc34)ccc2O[C@@H]1CN(C)C(=O)Nc1ccccc1
→ -8	-1.7	-17	-0.21
> CC(=O)c1c(O)cc(O)cc1O
→ -5	nt	nt	0.61
> C[C@@H]1CN([C@H](C)CO)C(=O)c2cc(NC(=O)NC3CCCCC3)ccc2O[C@@H]1CN(C)S(C)(=O)=O
→ 7	0.8	1	0.14

Carrying on:
Values run as follows: Hedgehog inh	PD-1 reversal	MITF inh	YB-1 expr inh
> CCCCCCC(=O)OC1OC(CO)C(O)C2OCC(C(=O)O)COC12 (configuration not stated)
→ 5	0.8	8	0.25
> C[C@@H]1CN([C@H](C)CO)C(=O)c2cc(NC(=O)CCN3CCOCC3)ccc2O[C@H]1CN(C)C(=O)Nc1ccc(F)cc1
→ -33	0.2	0	-0.18
> C[C@H]1CN([C@@H](C)CO)C(=O)c2cc(NC(=O)CCCN(C)C)ccc2O[C@H]1CN(C)CC1CC1
→ -25	0.6	-6	-0.28
> Cc1nn(Cc2nnc(SCc3c(Cl)cccc3Cl)o2)c(C)c1Br
→ 9	2.0	-5	0.033
> C[C@@H]1CCCCO[C@H](CN(C)C(=O)Nc2ccccc2)[C@@H](C)CN([C@H](C)CO)C(=O)c2cc(NC(=O)c3ccccc3)ccc2O1
→ 9	-0.7	-8	4.4*
> Cc1noc(C)c1S(=O)(=O)Nc1ccc2c(c1)C(=O)N([C@H](C)CO)C[C@H](C)[C@H](CN(C)Cc1ccccc1)O2
→ -2	0.2	-7	-0.065
> COc1cc(/C=C/C(=O)N2CCC=CC2=O)cc(OC)c1OC
→ 84*	nt	62	0.098
> COc1cc(S(=O)(=O)NCc2cccnc2)ccc1Br
→ nt	1.9	-8	nt
> CNC[C@H]1Oc2ccc(NC(=O)Nc3ccc4c(c3)OCO4)cc2C(=O)N([C@@H](C)CO)C[C@H]1C
→ nt	nt	2	-0.19
> COc1ccc(NC(=O)Nc2ccc3c(c2)C(=O)N([C@@H](C)CO)C[C@@H](C)[C@@H](CN(C)C(=O)Nc2ccc(OC)cc2)O3)cc1
→ -39	nt	3	-0.36
> COc1ccc(NC(=O)Nc2ccc3c(c2)C(=O)N([C@H](C)CO)C[C@H](C)[C@H](CN(C)C(=O)Nc2ccc(C(F)(F)F)cc2)O3)cc1
→ 27	0.1	1	0.26
> O=C(CN1C(=O)c2ccccc2S1(=O)=O)Nc1cccc(Br)c1
→ nt	2.8	-5	nt
> CCN=C(NCC)Nc1ccc(Cl)cc1
→ 13	-0.9	12	0.19

High-throughput results as filed in PubChem.
